Sfp inh – inhibitors of Bacillus subtilis Sfp phosphopantetheinyl transferase; Q9F4F7; Biochemical Sfp PPTase activity, qHTS; Potency, µM, for inactives: max response, negative = inhibition, actives largely listed as inhibitors; 310,000 tested, 3.5% active; AID 1490; active means well fitted inhibition curve with a large enough effect; inconclusive means small, poorly fitted or top-dose-only effect, or another doubt; inactive means no such curve, though single readings can be large or run the other way;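 further: the enzyme is Sfp with the accession as filed and its product quenches rhodamine fluorescence; potency means the concentration at half of the fitted maximal effect; 0% = enzyme reaction without inhibitor and -100% = no enzyme wells; top concentration of the series not given in the record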
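Step 1, compound plus 15 nM Sfp-PPTase, 15 min, room temperature. Step 2, add rhodamine-CoA (5 uM) and BHQ-2-YbbR (12.5 uM). Step 3, read 525/598 nm fluorescence at 0 and 30 min.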
TRPV1 potentiator – potentiators of human vanilloid receptor 1 (TRPV1); potentiation, % at 8.33 µM; Q8NER1; 320,000 tested, 0.02% active; TRPV1-expressing cells, Fluo-8 calcium influx, capsaicin EC20 potentiation; host cell line not named in the record; control for the full effect not named in the record; active means potentiation above 80%; inconclusive means 30% to 80%; inactive means below 30%; further: 0% is about no effect
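TRPV1-expressing cells were cultured overnight at 35.5C and loaded with Fluo-8 calcium dye for 40 to 90 min at room temperature. After a 10 s baseline, compound was added and calcium influx was read kinetically for 3 min (ex 480/em 520 nm).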
gsp antagonist – antagonizes gsp, the McCune-Albright syndrome mutation. gsp-mutant cells, cAMP HTRF, 30 min; control for the full effect not named in the record. Potency, µM (top dose mostly 76.9 µM), for inactives: at the highest dose activity change, negative = inhibition, most hits filed as inhibitors. AID 624288. 340,000 tested, 0.4% active; active = falling curve of any shape with a large fitted effect; inconclusive = falling curve, mostly with a smaller effect; inactive = flat or rising curve; cell line not stated here;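 further: intracellular cAMP measured with PDE inhibitor Ro 20-1724 present during compound exposure; potency means the concentration at half of the fitted maximal effect; on the % scale 0 is the no-effect control and ±100 the full control effect; nearly all actives have a fitted effect of over 65% in size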
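Measurement of cellular cAMP by homogeneous time-resolved fluorescence following a 30 min compound exposure at 37C. The PDE inhibitor […] was present throughout; the assay buffer was DPBS with 0.05% BSA and 0.005% Tween 20.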
gsp agonist – agonists of gsp mutant (McCune-Albright syndrome) | gsp mutant cells, cAMP HTRF, 30 min; control for the full effect not named in the record | Potency, µM (series often up to 76.9 µM), without a hit: at the highest dose activation (cAMP increase), actives largely listed as activators | 340,000 tested, 0.13% active; active = well fitted activation curve with a large enough effect; inconclusive = small, poorly fitted or top-dose-only effect, or another doubt; inactive = no such curve, though single readings can be large or run the other way; cell line not stated here;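 further: phosphodiesterase inhibitor Ro 20-1724 added with compounds to block cAMP breakdown; potency means the concentration at half of the fitted maximal effect; nearly all actives have a fitted effect of over 60% in size; about a fifth of the inactives were tested at one dose only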
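Cells stably selected in G418 were plated at 2000/well, grown 16-24 hr, then given compounds in DMSO with the PDE inhibitor […] (300 uM solution added) for 30 min at 37C; cAMP was read by HTRF.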
TRPML1 inh – blocks the human TRPML1 channel. Q9GZU1. 390,000 tested, 0.02% active. AID 624415. activity change, negative = inhibition, % (test concentration not listed). TRPML1-inducible cells, Ca2+ dye fluorescence, FDSS; active compounds read low; inhibition of EC80 agonist-evoked calcium signal; in the data active means activity change below about -50%; inconclusive means about -30% to -50%; inactive means above about -30%;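 further: stimulus is agonist 54-4 at its EC80 concentration; on the % scale 0 is the no-effect control and ±100 the full control effect; compound concentration not given in the record; the text of the record puts the active cut at -80%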
Target sequence (Q9GZU1 whole entry, looked up): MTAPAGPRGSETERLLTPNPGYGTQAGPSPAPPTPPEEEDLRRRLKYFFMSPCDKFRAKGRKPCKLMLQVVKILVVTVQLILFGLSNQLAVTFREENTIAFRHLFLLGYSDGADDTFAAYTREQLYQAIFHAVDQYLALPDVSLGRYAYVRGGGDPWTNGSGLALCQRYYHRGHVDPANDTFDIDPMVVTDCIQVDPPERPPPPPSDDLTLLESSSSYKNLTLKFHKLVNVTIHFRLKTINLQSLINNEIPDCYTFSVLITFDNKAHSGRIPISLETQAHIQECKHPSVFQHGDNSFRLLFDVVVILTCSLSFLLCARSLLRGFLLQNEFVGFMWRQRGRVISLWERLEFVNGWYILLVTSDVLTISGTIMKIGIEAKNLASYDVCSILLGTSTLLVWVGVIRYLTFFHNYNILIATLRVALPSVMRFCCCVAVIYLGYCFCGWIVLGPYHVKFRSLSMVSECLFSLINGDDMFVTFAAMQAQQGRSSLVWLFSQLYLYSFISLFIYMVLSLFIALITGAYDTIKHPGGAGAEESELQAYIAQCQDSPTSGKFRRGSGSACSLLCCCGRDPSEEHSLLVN
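TRPML1-DL cells, Tet-induced overnight (~16 h, 37 °C) at 1,500 cells/well, were loaded with Ca8 no-wash dye plus quencher for 45-90 min at room temperature. Compounds were pinned during FDSS kinetic reading; agonist 54-4 at EC80 (4 uM final) then added.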
Menin MLL FP FL – displaces fluorescein MLL peptide from human menin; Fluorescence polarization, fluorescein-MLL peptide displacement from menin; FP activity change, % at 61.4 µM; 290,000 tested, under 10 active; inconclusive = falling polarisation curve, or a change in total fluorescence; inactive = total fluorescence flat and polarisation flat or rising; no compound was filed as active; the % refers to the polarisation; negative = inhibition;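 further: % of control where 0% means no effect; inhibitors lower the polarisation; unlabelled MLL peptide was the positive control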
ClpP mod – qHTS Assay for Activators of ClpP | Potency, µM (doses to about 57.5 µM), for inactives: at the top dose activity change, negative = active | 340,000 tested, 1.9% active | AID 651965, 2013 | purified B. subtilis ClpP, FRET peptide cleavage, 20 min; active = well fitted falling curve with a large enough effect; inconclusive = small, poorly fitted or top-dose-only effect; inactive = no such curve, though single readings can be large or run the other way; further: potency means the concentration at half of the fitted maximal effect; the source files actives as falling curves though it sought activators and does not explain the sign; nearly all actives have a fitted effect of over 65% in size; many hits overshoot -100%
Target sequence (P80244 whole entry, looked up): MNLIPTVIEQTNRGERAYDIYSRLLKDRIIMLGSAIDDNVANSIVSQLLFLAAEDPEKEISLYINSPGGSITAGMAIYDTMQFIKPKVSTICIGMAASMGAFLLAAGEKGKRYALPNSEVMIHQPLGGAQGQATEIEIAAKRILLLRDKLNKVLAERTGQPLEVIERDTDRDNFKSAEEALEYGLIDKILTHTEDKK
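FRET quenching reversal measured ClpP activation: 10 microg/mL B. subtilis ClpP at pH 8 with the FRET-FV decapeptide, read at 430 nm after 320 nm excitation. The 20-min minus 0-min signal was scaled between DMSO/no-enzyme wells and ADEP (5.8 microM final).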
Active calls of the source: *; [ ] = dose if it differs, or a comment.

COc1ccccc1/C=C/C(=O)c1cc(Br)ccc1OC(=O)c1ccco1 was read as gsp antagonist -8.5%, gsp agonist 8.7%, TRPML1 inh 1.2 and ClpP mod -0.7%.
Cc1cccc(-n2ccnc2SCC(=O)Nc2cc(C)on2)c1 was read as Sfp inh -4.8%, TRPV1 potentiator -7.7, gsp antagonist -3.6%, gsp agonist -14.8%, TRPML1 inh 26.5, Menin MLL FP FL -0.9 and ClpP mod -1.3%.
Cc1ccc(C(=O)COC(=O)c2cccc(NC(=O)c3ccc([N+](=O)[O-])cc3[N+](=O)[O-])c2)cc1 was read as Sfp inh -11.1%, TRPV1 potentiator 9.2, gsp antagonist 0.3%, gsp agonist -0.1%, TRPML1 inh 1.0, Menin MLL FP FL -0.5 and ClpP mod -3.5%.
O=C(CSc1n[nH]c(=O)[nH]c1=O)N/N=C/C=C/c1ccccc1 was read as Sfp inh 17.6%, TRPV1 potentiator 11.7, gsp antagonist -0.2%, gsp agonist -17.9%, TRPML1 inh 0.1, Menin MLL FP FL -0.4 and ClpP mod 2.2%.
For CC1CN(C(=O)COc2ccc3ccccc3c2)CC(C)O1 (configuration not stated) the results were gsp antagonist 2.4%, gsp agonist 1.2%[15.4 µM], TRPML1 inh -3.0 and ClpP mod -0.7%.
CC12CCC(=O)C=C1CCC1C3CC(O)C(O)(C(=O)CO)C3(C)CC(O)C12F (configuration not stated) was read as gsp antagonist 8.1%, gsp agonist 6.3% and TRPML1 inh -10.4.
For N#CC1=C(N)NC(SCC(=O)Nc2ccccc2)=C(C#N)C12CCCCC2 the results were Sfp inh 13.8%, TRPV1 potentiator 0.2, gsp antagonist inconclusive, gsp agonist -11.4%, TRPML1 inh -8.9, Menin MLL FP FL 0.8 and ClpP mod -0.3%.
COc1ccc(NC(=O)COC(=O)CC23CC4CC(CC(C4)C2)C3)c([N+](=O)[O-])c1 was read as Sfp inh 6.2%, TRPV1 potentiator 6.2, gsp antagonist -6.8%, gsp agonist -54.7%[inhibitor], TRPML1 inh 41.0, Menin MLL FP FL -0.7 and ClpP mod 0.8%.
For O=C(NCCO)c1ccc2c3n(nc2c1)-c1ccccc1CO3 the results were Sfp inh -8.7%, TRPV1 potentiator -15.0, gsp antagonist -1.5%, gsp agonist -16.2%, TRPML1 inh 20.2, Menin MLL FP FL -0.9 and ClpP mod 3.9%.
Cc1ccc(C(=O)c2ccccc2C(=O)OCC(=O)N2CC(C)CC(C)C2)cc1 (configuration not stated) was read as TRPV1 potentiator -8.9, gsp antagonist inconclusive, gsp agonist inconclusive, TRPML1 inh -5.2 and ClpP mod 0.0%.
CCOc1ccccc1NS(=O)(=O)c1ccc2c(c1)n(C)c(=O)c(=O)n2C was read as Sfp inh 1.6%, TRPV1 potentiator -15.3, gsp antagonist 9.3%, gsp agonist 18.0%[15.4 µM], TRPML1 inh 1.3, Menin MLL FP FL -1.8 and ClpP mod -0.8%.
Screening COc1ccc(NC(=O)/C(C#N)=C\c2ccc(-c3cccc(C(=O)O)c3C)o2)cc1 returned Sfp inh 12.2%, TRPV1 potentiator -13.2, gsp antagonist inconclusive, gsp agonist -42.8%[inhibitor], TRPML1 inh 52.4 and Menin MLL FP FL 11.4.
Screening COc1ccc(C(c2oc(CO)cc(=O)c2O)c2oc(CO)cc(=O)c2O)cc1 returned Sfp inh inconclusive, TRPV1 potentiator 6.0, gsp antagonist 11.1%, gsp agonist 9.3%, TRPML1 inh -11.7 and Menin MLL FP FL 0.5.
`CC(NC(=O)c1ccc2c(c1)OCO2)C1CCCO1` (configuration not stated) gave Sfp inh 14.8%, TRPV1 potentiator 2.1, gsp antagonist 8.8%, gsp agonist 13.2%, TRPML1 inh 8.0, Menin MLL FP FL 0.8 and ClpP mod -7.2%.
Screening COc1ccc(NC(=O)C2CCN(S(=O)(=O)c3c(C)noc3C)CC2)cc1 returned Sfp inh 15.4%, TRPV1 potentiator -9.9, gsp antagonist 6.1%, gsp agonist 1.8% and TRPML1 inh 8.1.
For O=C(CSc1nnc(NC(=O)Cc2ccc(F)cc2)s1)NCc1ccco1 the results were Sfp inh 10.9%, TRPV1 potentiator 5.1, gsp antagonist 1.3%, gsp agonist -10.1%[15.4 µM], TRPML1 inh -3.1, Menin MLL FP FL 1.4 and ClpP mod -2.4%.
Screening O=c1cc(O)c2ccccc2n1Cc1ccccc1 returned Sfp inh -5.1%, TRPV1 potentiator 14.3, gsp antagonist -9.9%, gsp agonist 15.8%[15.4 µM], TRPML1 inh -5.3 and Menin MLL FP FL 1.4.
Screening O=C(O)c1cncc(SCc2ccccc2)n1 returned gsp antagonist -18.6%, gsp agonist 24.9%[15.4 µM], TRPML1 inh 15.8 and ClpP mod 0.4%.
Screening COc1cc(OC)cc(C(=O)NNC(=O)CCC2CCCC2)c1 returned gsp antagonist 9.1%, gsp agonist -22.6%, TRPML1 inh -10.8 and ClpP mod -5.4%.
For O=C(CC(c1ccccc1)c1ccco1)N1CCOCC1 (configuration not stated) the results were Sfp inh 6.1%, TRPV1 potentiator -1.2, gsp antagonist 0.8%, gsp agonist -1.1%, TRPML1 inh -8.1, Menin MLL FP FL 1.0 and ClpP mod 0.9%.
For COc1ccccc1OCc1nc2ccccc2n1C the results were Sfp inh 8.9%, TRPV1 potentiator inconclusive, gsp antagonist 4.4%, gsp agonist -36.9%[inhibitor], TRPML1 inh 6.9 and Menin MLL FP FL -3.1.
For CCCN1C(=O)C(O)(c2c(C)[nH]c3ccccc23)c2ccccc21 (configuration not stated) the results were Sfp inh -0.3%, TRPV1 potentiator -9.1, gsp antagonist 5.9%, gsp agonist 27.2%, TRPML1 inh 5.4, Menin MLL FP FL 2.9 and ClpP mod -1.3%.
Screening CCOC(=O)c1[nH]c2ccccc2c1NC(=O)c1ccco1 returned Sfp inh 50.1µM*, gsp antagonist -3.6%, gsp agonist 2.5%, TRPML1 inh -0.7, Menin MLL FP FL 4.6 and ClpP mod -10.3%.
Screening Cc1cc(C)c2c3c(sc2n1)C(c1cccc(F)c1)C(C#N)=C(N)O3 (configuration not stated) returned Sfp inh inconclusive, TRPV1 potentiator -3.1, gsp antagonist -36.0%, gsp agonist -4.6%, TRPML1 inh 8.7, Menin MLL FP FL 8.3 and ClpP mod inconclusive.
`COc1ccc(OC)c(CNc2ncc(-c3cccc([N+](=O)[O-])c3)n2C)c1` gave Sfp inh inconclusive, TRPV1 potentiator -1.4, gsp antagonist -6.6%, gsp agonist inconclusive, Menin MLL FP FL 3.4 and ClpP mod 1.3%.
`Cc1ccc2cccc(NC(=S)NC(=O)c3c(Br)cnn3C)c2n1` gave Sfp inh -4.6%, TRPV1 potentiator 7.4, gsp antagonist 3.2%, gsp agonist 5.1%, TRPML1 inh 57.3, Menin MLL FP FL -2.7 and ClpP mod -1.1%.
`C/C=C/c1ccc(OCC(=O)Nc2ccc(C(N)=O)cc2)c(OC)c1` gave Sfp inh 1.6%, TRPV1 potentiator -17.1, gsp antagonist -13.4%, gsp agonist 9.2%[15.4 µM], TRPML1 inh 30.1 and Menin MLL FP FL -3.2.
`CC(C(=O)Nc1ccccc1C#N)N1C(=O)NC2(CCCCCC2)C1=O` (configuration not stated) gave TRPV1 potentiator 13.7, gsp antagonist 9.6%, gsp agonist -4.4%[15.4 µM] and TRPML1 inh 20.4.
Screening CC(C)CC(C(=O)NC(=O)NCc1ccccc1)N1C(=O)c2ccccc2C1=O (configuration not stated) returned Sfp inh 6.5%, TRPV1 potentiator -0.2, gsp antagonist -3.4%, gsp agonist -0.8%, TRPML1 inh -3.6, Menin MLL FP FL 4.7 and ClpP mod -4.0%.
For CC(Oc1ccc(Br)cc1)C(=O)NCC(c1ccco1)N1CCCCC1 (configuration not stated) the results were TRPV1 potentiator -5.4, gsp antagonist 9.4%, gsp agonist inconclusive, TRPML1 inh 1.0 and ClpP mod -13.5%.
`O=C(NC1CCN(S(=O)(=O)c2ccc(F)cc2)CC1)c1cccc(F)c1` gave Sfp inh 16.2%, TRPV1 potentiator -11.0, gsp antagonist 1.3%, gsp agonist -22.3%, TRPML1 inh -5.2, Menin MLL FP FL 0.8 and ClpP mod -1.3%.
`C[C@@H]1C(=O)O[C@H]2[C@H](O)[C@@]34[C@H]5C[C@@H](C(C)(C)C)[C@]36[C@@H](OC(=O)[C@@H]6O)O[C@@]4(C(=O)O5)[C@@]12O` gave Sfp inh 26.3%, TRPV1 potentiator -4.1, gsp antagonist 19.6%, gsp agonist -4.0%, TRPML1 inh 0.2 and Menin MLL FP FL -1.3.
Screening CNC(=O)CSc1nnc(-c2ccco2)n1-c1ccccc1 returned Sfp inh 6.6%, TRPV1 potentiator -0.6, gsp antagonist 14.4%, gsp agonist -38.4%[inhibitor], TRPML1 inh 0.0 and Menin MLL FP FL -6.7.
Screening Cc1ccccc1CNC(=O)c1cc(COc2ccc(F)cc2F)on1 returned Sfp inh -1.5%, TRPV1 potentiator -2.9, gsp antagonist 7.6%, gsp agonist 3.4%, TRPML1 inh -4.1, Menin MLL FP FL 3.2 and ClpP mod -2.7%.
Screening COC(=O)CC/C(O)=C1/C(=N)CC(C)(C)CC1=O returned Sfp inh 7.3%, TRPV1 potentiator 17.2, gsp antagonist 14.3%, gsp agonist -20.4%, TRPML1 inh -2.4, Menin MLL FP FL 1.7 and ClpP mod 2.4%.
COc1cc(C(=O)Nc2ccc3c(c2)CCCN3C(=O)c2ccco2)c([N+](=O)[O-])cc1OC was read as TRPV1 potentiator -0.5, gsp antagonist -6.4%, gsp agonist -5.8%, TRPML1 inh -1.5 and ClpP mod -1.2%.
For O=C(CNS(=O)(=O)c1ccccc1)N1CCN(Cc2ccccc2)CC1 the results were Sfp inh 20.1%, TRPV1 potentiator -2.6, gsp antagonist 7.0%, gsp agonist -36.0%[inhibitor], TRPML1 inh 12.5 and ClpP mod -1.1%.
For CCCCC(=O)Nc1c(O)c2ccccc2[nH]c1=O the results were Sfp inh 9.6%, TRPV1 potentiator -7.6, gsp antagonist -0.7%, gsp agonist 34.9%, TRPML1 inh 14.5, Menin MLL FP FL 0.5 and ClpP mod inconclusive.
Screening CCOc1ccc(NC(=O)CSc2nnc(-c3ccco3)n2C)cc1 returned Sfp inh 9.4%, TRPV1 potentiator 20.9, gsp antagonist -0.3%, gsp agonist -27.3%, TRPML1 inh 13.3, Menin MLL FP FL 3.8 and ClpP mod -0.9%.
`COc1ccc(N2CCN(c3ncnc4nc[nH]c34)CC2)cc1` gave Sfp inh 5.4%, TRPV1 potentiator 8.3, gsp antagonist -8.5%, gsp agonist inconclusive, TRPML1 inh 5.9, Menin MLL FP FL 1.6 and ClpP mod 1.2%.

Screening data as filed in PubChem.
